# LT uptake inh = blocks cellular internalization of anthrax lethal toxin | Cells, anthrax lethal toxin internalization, FRET ratio (460/530) | actives 0.67% (n = 70,000) | Potency, µM (doses to about 40 µM), for the others: at the top dose activity change, negative = inhibition, most hits filed as inhibitors; active = well fitted falling ratio curve with the 530 nm signal flat; inconclusive = other ratio curves, or a change in one channel alone; inactive = flat curves in the ratio and both channels; the % refers to the ratio; further: on the % scale 0 is the no-effect control and ±100 the full control effect; nearly all actives have a fitted effect of over 50% in size; tested in ME-180 cells; beta-lactamase reporter
# SmPrx2 inh = Schistosoma mansoni Prx2 inhibition | actives 0.07% (n = 65,000) | S. mansoni Prx2 activity coupled to TGR/GSH (TGR is thioredoxin glutathione reductase), NADPH fluorescence loss, qHTS; some inactives read as strong as hits | Potency, µM | AID 448; active means full or partial inhibition curve with a strong effect at the top dose; inconclusive means weaker partial or single-point curve; inactive means no accepted curve; further: series up to 57 µM; many of its hits are not listed in these tables
#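 Activity is read as the drop in NADPH fluorescence (365/450 nm), recorded every 30 sec for 8 min after H2O2 addition. Prx2 is coupled to TGR-driven NADPH oxidation through glutathione, in phosphate buffer pH 7.4.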
# Active calls of the source: *; ? = inconclusive; . = not tested or not shown; [ ] = another dose, or the depositor's remark. Potency means the concentration at half of the fitted maximal effect. Some of the compounds tested; rates above refer to the full screens.
SMILES,LT uptake inh,SmPrx2 inh
CCCCCn1c(C(C)NC(=O)CCC)nc2ccccc21 (centres undefined),4%,>57
COc1ccc2c(c1)CCC1[C@@H]2CCC2(C)[C@@H](NCCCCCCN3C(=O)C=CC3=O)CC[C@@H]12 (some centres undefined),-4%,>57
Cc1c(C(=O)NCCC2=CCCCC2)oc2ccc(S(=O)(=O)N3CCC4(CC3)OCCO4)cc12,?,>57
CC1CCCCN1CCn1cnc2c([nH]c3ccccc32)c1=O (centres undefined),1%,>57
CCNC(=O)CP(=O)(c1ccccc1)c1ccccc1,-10%,.
O=C(CSc1ccc2nnc(-c3ccccn3)n2n1)Nc1ccc2c(c1)OCO2,11%,>57
COc1ccc(C(=O)NCc2cccnc2)cc1OC,5%,.
Cc1cc(SCC(=O)c2ccccc2)n2nc(C)nc2n1,?,>57
CCOC(=O)N1CCC(NC(=O)C2CCN(S(=O)(=O)c3cnc[nH]3)CC2)CC1,6%,>57
COc1cccc(-c2cncnc2Nc2ccccc2)c1,-1%,>57
CC(C)(C)OC(=O)NCCc1nnc(SCC(=O)c2ccc(Cl)cc2)o1,?,>57
N#Cc1c(N)sc(=S)c2c1CCCC2,?,>57
Cc1ccccc1NC(=O)N1CCCC(c2nc(-c3ccc(C(C)C)cc3)no2)C1 (centres undefined),-16%,>57
CCn1c(=O)cc(OCC(=O)NCCC(C)C)c2ccccc21,-3%,>57
Cc1nc(NC2=NCN(CC3CCCO3)CN2)nc2ccccc12 (centres undefined),-8%,>57
Cc1cc(C)n2c(SC/C(O)=C(\C#N)c3nc4ccccc4[nH]3)nnc2n1,0%,>57
O=C(NCc1ccccn1)c1cc2n(n1)C(C(F)(F)F)CC(c1ccco1)N2 (centres undefined),-3%,>57
O=C(NCc1cccnc1)C1CC(=O)N(c2ccc(F)cc2)C1 (centres undefined),-8%,.
CCC(=O)N1CCc2cc(S(=O)(=O)CCC(=O)NCCC3=CCCCC3)ccc21,5%,>57
CCCCOc1ccc(C(C)NC(=O)C2CCCN(S(=O)(=O)CC)C2)cc1 (centres undefined),3%,>57
Cn1cccc1C(=O)OCc1csc(-c2ccccc2)n1,?,>57
Cc1ccc(-c2nc(CS(=O)CC(=O)NC3CCCC3)c(C)o2)cc1 (centres undefined),-8%,>57
CCOC(=O)C1=C2SCCN2C(=O)C(C#N)C1(C)C (centres undefined),-2%,>57
COc1ccc(NC(=O)CSc2nnc(Cc3ccccc3)o2)c(OC)c1,1%,>57
c1ccc(-c2nnc3sc(-c4ccncc4)nn23)cc1,.,>57
O=C(C1CCN(S(=O)(=O)c2cccc3cccnc23)CC1)N1CCN(c2ccccc2)CC1,-1%,?
O=C(c1cccc(Cl)c1)N1CCCC(C(=O)N2CCCCCC2)C1 (centres undefined),-12%,>57
COc1ccc(S(=O)(=O)N2CCC(C(=O)N3CCc4ccccc4C3)CC2)cc1,-3%,>57
Cc1cc(S(=O)(=O)NCC(=O)O)ccc1F,12%,>57
O=C1C2ON(c3ccc(Br)cc3)C(c3cccnc3)C2C(=O)N1C1CCCCC1 (centres undefined),10%,>57
COC(=O)C1=C(O)CSC1=Nc1cccc(C(F)(F)F)c1,5%,.
O=C(O)c1c[nH]c2cc(OCc3ccccc3)ccc2c1=O,-10%[8 µM],>57
O=C(Nc1ccccc1C(=O)O)c1ncn[nH]1,-14%,.
O=S(=O)(Nc1ccc2c(c1)nc1n2CCN(Cc2ccccc2)C1)c1ccc(Cl)cc1,?,>57
CCn1cc(C(=O)O)c(=O)c2cnc(N3CCN(C(=O)Nc4ccccc4)CC3)nc21,3%,>57
Cc1ccc(C)c2[nH]c(=O)c(CN(CCCN(C)C)C(=O)NCc3ccccc3)cc12,-5%,>57
CC(=O)OC(C)C,6%,.
CCOc1ccc(NC(=O)c2cnc3scc(C)n3c2=O)cc1,-21%,>57
CCOc1c(Br)cc(C(N)=O)cc1OC,7%,>57
COc1cccc(N2CCN(C3CC(=O)N(c4ccc(Cl)c(Cl)c4)C3=O)CC2)c1 (centres undefined),-8%,>57
CC(=O)c1ccc(N2CCN(C(=O)c3ccc4c(=O)n(-c5ccccc5)c(=O)[nH]c4c3)CC2)cc1,-23%,>57
COC(=O)C1=C(C)NC2=C(C(=O)CCC2)C1c1cccs1 (centres undefined),14%,>57
CCOC(=O)N1CCC(NC(=O)c2cnc3n(c2=O)CCS3)CC1,-1%,>57
CC(=O)OCC(=O)NCc1ccc2c(c1)OCO2,3%,>57
CN(C)S(=O)(=O)c1ccc2c(c1)c(=O)c(C(=O)N1CCOCC1)cn2C,-1%,>57
CCOCCCNC(=O)C(NC(=O)CC1NC(=O)NC1=O)c1ccc(Cl)cc1 (centres undefined),6%,>57
O=C(Nc1ccccc1N1CCN(C(=O)c2ccc(Cl)cc2)CC1)c1cccnc1,10%,>57
Fc1cccc(Cl)c1CSc1nnc(COc2cccc3cccnc23)o1,-15%,>57
Cc1cc(=O)[nH]c(/N=C(\N)Nc2ccc(Cl)cc2)n1,-6%[8 µM],>11
CC(C)C(=O)N(c1ccc2oc(=O)sc2c1)S(=O)(=O)c1cccs1,?,>57
CCOC(=O)N1CCN(c2nnnn2-c2ccccc2)CC1,-5%,>57
N#Cc1cnn(Cc2ccc(Cl)cc2)c1N,-29%,>57
CCOc1ccccc1C(=O)NCCCn1ccnc1,?,>57
O=c1c2cnn(-c3ccc(F)cc3)c2ncn1Cc1ccccn1,13%,>57
CC1(C(=O)N(CC(=O)NC2CCCC2)Cc2ccco2)CC(=O)N=C2C=CC=CN21 (centres undefined),-7%,>57
COC(=O)N1CCC2(CC1)CCN(c1ccncc1)CC2,2%,>57
Cc1ccc(C(=O)NC(Cc2c[nH]c3ccccc23)C(=O)O)o1 (centres undefined),13%,>57
COc1ccccc1-c1noc(-c2cccnc2)n1,?,>57
Cc1ccc(S(=O)(=O)N2CCN(C(=O)N3CCOCC3)C2c2ccc(N(C)C)cc2)cc1 (centres undefined),15%,>57
Cc1cc(NC(=O)c2ccccc2F)n(-c2nc3ccccc3[nH]2)n1,.,>57

# A portion from further up, for reference:
SMILES,LT uptake inh,SmPrx2 inh
CCOc1ccc(NC(=O)c2cnc3scc(C)n3c2=O)cc1,-21%,>57
CCOc1c(Br)cc(C(N)=O)cc1OC,7%,>57
COc1cccc(N2CCN(C3CC(=O)N(c4ccc(Cl)c(Cl)c4)C3=O)CC2)c1 (centres undefined),-8%,>57
CC(=O)c1ccc(N2CCN(C(=O)c3ccc4c(=O)n(-c5ccccc5)c(=O)[nH]c4c3)CC2)cc1,-23%,>57
COC(=O)C1=C(C)NC2=C(C(=O)CCC2)C1c1cccs1 (centres undefined),14%,>57
CCOC(=O)N1CCC(NC(=O)c2cnc3n(c2=O)CCS3)CC1,-1%,>57
CC(=O)OCC(=O)NCc1ccc2c(c1)OCO2,3%,>57
CN(C)S(=O)(=O)c1ccc2c(c1)c(=O)c(C(=O)N1CCOCC1)cn2C,-1%,>57
CCOCCCNC(=O)C(NC(=O)CC1NC(=O)NC1=O)c1ccc(Cl)cc1 (centres undefined),6%,>57
O=C(Nc1ccccc1N1CCN(C(=O)c2ccc(Cl)cc2)CC1)c1cccnc1,10%,>57
Fc1cccc(Cl)c1CSc1nnc(COc2cccc3cccnc23)o1,-15%,>57
Cc1cc(=O)[nH]c(/N=C(\N)Nc2ccc(Cl)cc2)n1,-6%[8 µM],>11
CC(C)C(=O)N(c1ccc2oc(=O)sc2c1)S(=O)(=O)c1cccs1,?,>57
CCOC(=O)N1CCN(c2nnnn2-c2ccccc2)CC1,-5%,>57
N#Cc1cnn(Cc2ccc(Cl)cc2)c1N,-29%,>57
CCOc1ccccc1C(=O)NCCCn1ccnc1,?,>57
O=c1c2cnn(-c3ccc(F)cc3)c2ncn1Cc1ccccn1,13%,>57
CC1(C(=O)N(CC(=O)NC2CCCC2)Cc2ccco2)CC(=O)N=C2C=CC=CN21 (centres undefined),-7%,>57
COC(=O)N1CCC2(CC1)CCN(c1ccncc1)CC2,2%,>57

# Going on with the list:
SMILES,LT uptake inh,SmPrx2 inh
CC(=O)N1CCN(c2ccc(NC(=O)COc3ccc(Cl)cc3Cl)cc2)CC1,-11%,>57
CC(=O)C1=C(C)NC(SCC(=O)c2ccc(Cl)c(Cl)c2)=C(C#N)C1c1ccco1 (centres undefined),?,.
COC(=O)N1CCC[C@@]2(CCN(Cc3nccs3)C2)C1,-2%,>57
COc1cccc(C(=O)N(Cc2cc3cc(C)ccc3[nH]c2=O)CC2CCCO2)c1 (centres undefined),?,>57
COc1ccccc1N1CCN(C/C(O)=C(\C#N)c2nc(-c3ccccc3)cs2)CC1,-24%,>57
Cc1ccc(NC(=O)N2CCCC2C(=O)NCCC2=CCCCC2)cc1 (centres undefined),14%,>57
CCOC(=O)C1CCN(C(=O)CCNC(=O)c2cc(OC)c(OC)c(OC)c2)CC1,-3%,>57
CCOC(=O)C1=C(O)CCn2c1nc1ccccc12,16%,>57
CCOc1ccc(C2C(C#N)=C(N)Oc3n[nH]c(C)c32)cc1OC(=O)C1CC1 (centres undefined),-1%,>57
Cc1cc(C(=O)CSc2nnnn2C)c(C)n1CCc1ccc(F)cc1,-5%,>57
CCOC(=O)C1CCN(C(=O)C2CCN(S(=O)(=O)c3cccc4cccnc34)CC2)CC1,?,>57
Cc1c(-n2c(SCC(=O)O)nnc2-c2ccccc2Cl)c(=O)n(-c2ccccc2)n1C,4%,>57
COc1ccc(-c2cc3nc(C)cc(NCCO)n3n2)cc1,4%,>57
O=c1[nH]c2ccc(Cl)cc2c(=O)n1Cc1ccco1,11%,>57
CCOc1cc(S(=O)(=O)N2CCN(CC)CC2)ccc1Cl,-15%,>57
O=CN1C[C@H]2C[C@@H](C1)c1cccc(=O)n1C2,-11%,>57
CN(C(=O)COC(=O)COc1ccc(Cl)cc1)C1CCCCC1,6%,>57
CCCCCCOc1ccc(CN2CCN(CCO)CC2)cc1,8%,.
Cc1cc2nc3c(=O)[nH]c(=O)nc-3n(C[C@H](O)[C@H](O)[C@H](O)CO)c2cc1C,?,.
COc1ccccc1NC(=O)CSc1nnc(-c2ccncc2)o1,9%,>57
COc1ccc(C(=O)c2c(C)n(CCN3CCOCC3)c3cc(I)ccc23)cc1,?,>57
CCOC(=O)C1CCCN(C(=O)c2cccs2)C1 (centres undefined),-6%,>57
COC(=O)c1ccccc1NC(=O)CSc1nc2c(c(=O)n(C)c(=O)n2C)n1C,-6%,.
COc1ccc(C(=O)Nc2ccc3oc(-c4cccc(F)c4)nc3c2)cc1OC,2%,>57
Cc1cc(Nc2cccc(C)c2C)n2nc(C)nc2n1,-12%,>57
Cc1cccc(N2CCN(C(=O)CCNC(=O)Cn3ccc4ccccc4c3=O)CC2)c1C,18%,>57
COc1ccc(NC(=O)N(Cc2cccnc2)Cc2ccccc2Cl)c(OC)c1,-3%,>57
C=C(CC1([C@@H](NP(=O)(c2ccccc2)c2ccccc2)[C@H]2C[C@@H]2CCCC)CC1)c1ccccc1,?,.
Clc1ccc(CSc2nnc(-c3cccnc3)n2Cc2ccco2)c(Cl)c1,-21%,>57
Cc1csc(SCc2ccccc2C(=O)O)n1,?,>57
O=C(NCC(=O)N(c1cccc(F)c1)C(C(=O)NCC1CCCO1)c1ccccc1)c1ccco1 (centres undefined),-7%,>57
Cc1ccc(-c2nnn(CC(=O)N(Cc3ccccc3)C(C(=O)NC(C)(C)C)c3ccncc3)n2)o1 (centres undefined),?,>57
Cn1c(Cn2c(=O)sc3ccccc32)nnc1SCC(=O)N1CCCCCC1,?,>57
COCCNc1nc2c(c(=O)n(C)c(=O)n2C)n1Cc1cccc(C)c1,0%,>57
CN(C(=O)c1cccnc1)c1nc(-c2ccccc2)cs1,-2%,>57
CCOC(=O)C1CCN(c2ncnc3c2oc2ccc(Br)cc23)CC1,?,>57
CCn1c2c(c3cc(C(=O)O)ccc31)CCCC2=O,3%,>57
Cc1ccc(CSc2nnc(Cn3c(=O)sc4ccccc43)n2C)cc1,-9%,>57
CC(C)C(NC(=O)c1ccccc1)C(=O)NC1=NCCS1 (centres undefined),7%,>57
CC12CN3CC(C)(CN(C1)C3c1ccncc1)C2=O (centres undefined),10%,>57
COc1cc(C)c(C(C)C)cc1S(=O)(=O)n1cnc(C)c1,?,>57
CCOC(=O)C1=C(C)N(C)C(=O)NC1c1cccc(O)c1 (centres undefined),-3%,.
Cn1c(C(=O)NCCc2c[nH]c3ccccc23)cc2sccc21,?,>57
COc1ccc2[nH]cc(CCN)c2c1,?,>57
O=C(c1cnc2n(c1=O)CCS2)N(C1CCCCC1)C1CCCCC1,-1%,>57
COC(=O)c1ccccc1NC(=O)C1CC=CCC1C(=O)O (centres undefined),6%,>57
Clc1cccc(-c2nnc3sc(-c4ccccc4)nn23)c1,11%,>57
CC(=O)c1sc2nc(SCC(=O)N3CCCCC3)[nH]c(=O)c2c1C,-18%,>57
CCN(CC)c1ccc(NC(=O)C2CC3CCC2C3)cc1 (centres undefined),-20%,.
O=C1CC(c2ccco2)Cc2nc(N3CCc4ccccc4C3)ncc21 (centres undefined),?,>57
COc1cc(C2C(C#N)=C(N)Oc3cc(C)oc(=O)c32)ccc1OC(=O)N1CCOCC1 (centres undefined),-19%,>57
Cc1nn(Cc2ccccc2)c(C)c1NC(=O)c1cc(-c2ccco2)on1,1%,>57
O=C(NCC(=O)N(c1ccccc1)C(C(=O)NCC1CCCO1)c1ccccc1)c1ccco1 (centres undefined),3%,>57
O=C(CN1CCC2(CC1)OCCO2)c1ccc2cc[nH]c2c1,0%,>57
